NPYLR7 agonist – agonists of mosquito NPYLR7 receptor, primary screen, cell-based, Aedes aegypti, calcium fluorescence, mosquito biting behavior; Aedes aegypti neuropeptide Y-like receptor 7 (NPYLR7); HEK293T NPYLR7/Galpha15, GCaMP6s calcium fluorescence; activation, % at 10 µM; 0.15% of 270,000 active; in the data active = activation above about 40%;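 also: 0% = vehicle and 100% = reference agonist at the receptor; some compounds past the cut are filed as inactive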
NPYLR7 agonist max-min – also measured in NPYLR7 agonist; calls as there; activation, %; measured here: Max-Min RFU normalised activation; some inactives read as strong as hits;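 span of the calcium signal over five minutes; 0% = vehicle and 100% = native peptide agonist; compound fluorescence can raise it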
Numbers without * were called inactive; & = joins results of further samples. Some of the compounds tested; rates above refer to the full screens.

SMILES	NPYLR7 agonist	NPYLR7 agonist max-min
N=C1CSC(N2CCCCC2)=N1	-1.7	-2.5
O=C1c2ccccc2S(=O)(=O)N1Cc1cc(Cl)cc2c1OCOC2	5.9	11.3
CC1(C(=O)N(c2ccc(F)cn2)C2CCOCC2)CC1(Cl)Cl (stereo unspecified)	6.0	2.1
CC1=C(CCN2CCC(CCC(=O)N3CCCC3)CC2)C(C)(C)CCC1	-2.6	-7.3
CNc1ncccc1C(=O)N1CCC(=O)N(CC2CC2)C(C(C)C)C1 (stereo unspecified)	5.0	5.6
Cc1ccc(S(=O)(=O)NCCNc2ccc(Nc3cccc(C)n3)nn2)c(C)c1	15.0	7.5
Cc1c(C(=O)NCc2ccccc2C(F)(F)F)sc(=O)n1CC(=O)c1ccc(Cl)cc1	12.7	7.6
CCCn1ncc(C(=O)N2CCC(CO)(Cc3ccccc3Cl)CC2)c1C	6.2	-3.1
CNc1ccc2ncc(-c3ccccc3NC(C)=O)n2n1	0.2	-0.1
COc1ccc(Cc2nnc(SCC(=O)Nc3ccc(C)cc3C)[nH]c2=O)cc1	-9.0	-9.1
COc1ccc(S(=O)(=O)NCC2CCCN(C(=O)c3cncs3)C2)cc1 (stereo unspecified)	3.5&5.6	0.5&0.1
Cc1ncc(CN(C)C(=O)C(C(C)C)N2CCCCC2)s1 (stereo unspecified)	3.3	0.9
O=C(NCc1ccco1)c1cnn2c1NC(c1ccc3c(c1)OCO3)CC2C(F)(F)F (stereo unspecified)	16.3	18.4
O=C(NC(c1ccc(Cl)cc1)c1ccccn1)C1CCN(CCc2ccccc2)CC1 (stereo unspecified)	10.5	8.5
CC(=O)NCCNc1ccc(C#N)cc1[N+](=O)[O-]	3.1	2.3
C[C@]12C[C@H](O)CC(CO)(CO)C1[C@H](O)C[C@@]13CC4[C@@H](CC12)[C@@]4(C)C3 (stereo partly specified)	1.9	0.2
COc1cccc(-c2cc(C(=O)Nc3ccccc3C(C)C)c3ccccc3n2)c1	0.7	-5.3
CC1c2ccsc2CCN1CC(O)c1ccccc1 (stereo unspecified)	-3.3	-3.7
CC(Cc1ccncc1)OC(=O)Cc1csc(C(C)(C)C)n1 (stereo unspecified)	-1.7	-5.8
Cc1ccc(C(=O)O)c(N2CCC(CC3CC3)(C(=O)O)CC2)n1	-2.2	-5.3
COc1ccc2cc(C(N)=O)c(=Nc3cccc(C(F)(F)F)c3)oc2c1	-3.6	-9.3
CS(=O)(=O)c1ccc2nc(N)sc2c1	4.7	2.5
COCCCN(CC(=O)N(Cc1cccn1Cc1ccccc1Cl)CC(C)C)C(=O)c1ccccc1C	0.0	15.3
CNC(=O)[C@@H]1C[C@H](N)CN1C(=O)c1cc(=O)n(C)c2ccccc12	7.0	3.6
CC(C)(C)c1cc2nc(-c3ccccc3F)cc(C(=O)N3CCN(C/C=C/c4ccccc4)CC3)n2n1	-3.4&12.9	4.7&24.5

No new results follow: entries from further up.
SMILES	NPYLR7 agonist	NPYLR7 agonist max-min
N=C1CSC(N2CCCCC2)=N1	-1.7	-2.5
O=C1c2ccccc2S(=O)(=O)N1Cc1cc(Cl)cc2c1OCOC2	5.9	11.3
CC1(C(=O)N(c2ccc(F)cn2)C2CCOCC2)CC1(Cl)Cl (stereo unspecified)	6.0	2.1
CC1=C(CCN2CCC(CCC(=O)N3CCCC3)CC2)C(C)(C)CCC1	-2.6	-7.3
CNc1ncccc1C(=O)N1CCC(=O)N(CC2CC2)C(C(C)C)C1 (stereo unspecified)	5.0	5.6
Cc1ccc(S(=O)(=O)NCCNc2ccc(Nc3cccc(C)n3)nn2)c(C)c1	15.0	7.5
Cc1c(C(=O)NCc2ccccc2C(F)(F)F)sc(=O)n1CC(=O)c1ccc(Cl)cc1	12.7	7.6
CCCn1ncc(C(=O)N2CCC(CO)(Cc3ccccc3Cl)CC2)c1C	6.2	-3.1
CNc1ccc2ncc(-c3ccccc3NC(C)=O)n2n1	0.2	-0.1
COc1ccc(Cc2nnc(SCC(=O)Nc3ccc(C)cc3C)[nH]c2=O)cc1	-9.0	-9.1
COc1ccc(S(=O)(=O)NCC2CCCN(C(=O)c3cncs3)C2)cc1 (stereo unspecified)	3.5&5.6	0.5&0.1
Cc1ncc(CN(C)C(=O)C(C(C)C)N2CCCCC2)s1 (stereo unspecified)	3.3	0.9
O=C(NCc1ccco1)c1cnn2c1NC(c1ccc3c(c1)OCO3)CC2C(F)(F)F (stereo unspecified)	16.3	18.4
O=C(NC(c1ccc(Cl)cc1)c1ccccn1)C1CCN(CCc2ccccc2)CC1 (stereo unspecified)	10.5	8.5
CC(=O)NCCNc1ccc(C#N)cc1[N+](=O)[O-]	3.1	2.3
C[C@]12C[C@H](O)CC(CO)(CO)C1[C@H](O)C[C@@]13CC4[C@@H](CC12)[C@@]4(C)C3 (stereo partly specified)	1.9	0.2
COc1cccc(-c2cc(C(=O)Nc3ccccc3C(C)C)c3ccccc3n2)c1	0.7	-5.3
CC1c2ccsc2CCN1CC(O)c1ccccc1 (stereo unspecified)	-3.3	-3.7
CC(Cc1ccncc1)OC(=O)Cc1csc(C(C)(C)C)n1 (stereo unspecified)	-1.7	-5.8
Cc1ccc(C(=O)O)c(N2CCC(CC3CC3)(C(=O)O)CC2)n1	-2.2	-5.3

An excerpt from above in order of formula weight, low to high.
SMILES	NPYLR7 agonist	NPYLR7 agonist max-min
CC1=C(CCN2CCC(CCC(=O)N3CCCC3)CC2)C(C)(C)CCC1	-2.6	-7.3
CCCn1ncc(C(=O)N2CCC(CO)(Cc3ccccc3Cl)CC2)c1C	6.2	-3.1
Cc1ccc(S(=O)(=O)NCCNc2ccc(Nc3cccc(C)n3)nn2)c(C)c1	15.0	7.5

(further entries)
SMILES	NPYLR7 agonist	NPYLR7 agonist max-min
Cc1ccc(-c2nc(NCCNC(=O)Nc3ccc(F)cc3F)c3ccccc3n2)cc1	1.4	12.2
CCN(CC(=O)N1CC(=O)N(c2cccc(Cl)c2C)C1)C(=O)c1ccc(Cl)cc1Cl	21.0	23.7
C/C=C/c1ccc(OCC(=O)N2CCCC(C(=O)Nc3ccc(Cl)cn3)C2)c(OC)c1 (stereo unspecified)	11.5	8.3
O=C1CCC(NC(=O)OCc2ccccc2)(C(=O)O)O1 (stereo unspecified)	1.0	2.5
CCOC(=O)CNC(=O)Nc1ccc(N(C)C)c(C(=O)NC(C)c2ccccc2)c1 (stereo unspecified)	9.8	19.9
COc1ccc(C2C(O)C(c3c[nH]c4ccccc34)=NN2C(=O)CN2CCCCC2)cc1 (stereo unspecified)	-0.4	4.0
O=C(CN1CN(c2ccccc2)C2(CCN(C(=O)C34CC5CC(CC(C5)C3)C4)CC2)C1=O)NCc1ccco1	-6.8	5.8
O=C1CN(C(=O)CCCc2ccc3c(c2)-c2ccccc2C3)CCN1	3.5	2.0
CCc1nc2c(sc(=S)n2-c2ccccc2)c(=O)[nH]1	-4.3	-6.0
O=C(NCc1ccccn1)c1cn(Cc2cccc(C(F)(F)F)c2)nn1	-0.5	-1.7
O=S(=O)(/C=C/c1ccccc1)N1CCN(c2ccc3nnc(C4CC4)n3n2)CC1	0.5	3.3
Cc1cc(C)c2[nH]c(O)c(N=NC(=O)c3cccc(O)c3)c2c1	-1.1	-6.3
Cc1nn(C2CCS(=O)(=O)C2)c(Cl)c1/C=C/C(=O)OCC(=O)C12CC3CC(CC(C3)C1)C2 (stereo unspecified)	4.8	11.9
Cc1cccnc1NP1(=S)C(=C2N(C)c3ccccc3C2(C)C)C=NN1c1ccccc1 (stereo unspecified)	-4.9	-7.0
COc1cc(C(=O)N2CCN(Cc3cccc(-c4noc(C5CCCC5)n4)c3)CC2)ccc1F	2.1	-0.7
COc1ccc(N(C)S(=O)(=O)c2ccc(OC)c(N3CCN(C(=O)Cc4cccs4)CC3)c2)cc1	11.7	4.4
CC1CN(c2cc(Cl)nc(SCC(=O)O)n2)CCN1C(=O)c1ccccc1F (stereo unspecified)	39.7	47.8
c1ccc2oc(-c3nn4c(CN5CCCCCC5)nnc4s3)cc2c1	9.1	10.5
CCCCOc1ccc(C(=O)N2CCC[C@@H]2C(=O)NC2CCC(NC(=O)c3ccccc3)CC2)cc1 (stereo partly specified)	2.6	12.9
Cc1cc(C)n(CC(=O)NCc2ccc(F)cc2)c(=O)c1C#N	4.0	-1.9
CCC(C)OC(=O)C1=C(C)NC2=C(C(=O)CC(c3ccc(Cl)cc3)C2)C1c1cccc(O)c1 (stereo unspecified)	1.4	8.2
O=C(CSc1nc(=O)n(CCO)c2c1CCCC2)N1CCc2ccccc21	-7.6	-15.0
N#Cc1ccc(CN[C@@H]2c3ccccc3C[C@@H]2O)cc1	4.6	0.4
O=C(CCN=C1NS(=O)(=O)c2ccccc21)NCCSc1ccc(Cl)cc1	8.2	4.3
CC1=CN2C(=NC(=O)CC2(C)C(=O)NCCCN(CC(C)C)CC(C)C)C=C1 (stereo unspecified)	8.3	4.0
More structures.
SMILES	NPYLR7 agonist	NPYLR7 agonist max-min
CC(=O)c1c[nH]c(C(=O)N2CC=C(c3ccc(F)cc3)CC2)c1	5.4	2.0
CS(=O)(=O)Nc1cccc(-c2nccc3n[nH]c(C4CCCCC4)c23)c1	4.2	2.1
COC(=O)c1ccc2c(c1)CN(C(=O)CCc1ccccc1O)CC2	4.8	7.2
Cc1cc(C)n(-c2cccc(NC(=O)N3CCC[C@@H]3CO)c2)n1	-4.1	-5.7
COc1ccc(Br)cc1/C=C/C(=O)N1CCCC1c1nnc2c(C(F)(F)F)cccn12 (stereo unspecified)	-8.1	-11.0
COCc1cc(N2CCN(c3ccccc3Cl)CC2)nc(SCc2ccc(C(=O)O)cc2)n1	6.2	15.1
COc1cccc(OC)c1C(=O)N1C(C(=O)NCc2ccco2)COC12CCCCC2 (stereo unspecified)	-1.5	7.4
COc1cc(Nc2cc3c(cn2)cc(-c2cccnc2)n3Cc2ccccc2)cc(OC)c1OC	-15.7	-15.6
CN1CCCN(c2ncnc3sc4c(c23)CCCC4)CC1	-7.6	-4.9
CC(C)OC(=O)c1ccc(NC(=S)NC(=O)c2cncc(Br)c2)cc1	0.0	-1.3
COc1cccc(-c2cc(CNC(=O)COc3ccccc3)no2)c1	1.0	-1.1
NC(=O)c1ccsc1NC(=O)c1cc(Cl)sc1Cl	2.1	0.6
Cc1ccc2c(CC(=O)N3CC(=O)N(CC(C)C)CC(OCc4ccccn4)C3)cc(=O)oc2c1 (stereo unspecified)	15.9	8.7
CCOC(=O)c1cnn2c1NC(C)CC2C(F)F (stereo unspecified)	4.3	0.7
Cn1cc(Cl)c(C(=O)Nc2nc3ccc(Cl)cc3s2)n1	8.1	6.8
CCc1cccc2c(C(CC(=O)N3CCN(C(C)=O)CC3)c3cccc(C(F)(F)F)c3)c[nH]c12 (stereo unspecified)	-0.6	9.6
CC(Oc1cccc(C#N)c1)C(=O)NC(=O)NC(C)(C)C (stereo unspecified)	10.9	7.0
COc1ccccc1NC(=O)c1ccc(Nc2nc(-c3ccccc3)c3cc(C)ccc3n2)cc1	2.3	5.1
O=C(NN=C1CCCCC1)c1ccccc1Cl	5.4	0.1
CC1CCN(S(=O)(=O)c2ccc(F)cc2F)CC1	0.5	-1.7
CCCCc1ccc(C(=O)N(C)C(C)Cc2cc(C)ccn2)nc1 (stereo unspecified)	14.8	4.6
CC(OCC(O)CNC1CCCC(C)C1C)c1ccc(Cl)cc1 (stereo unspecified)	-2.2	-2.9
COC(=O)C(C#N)=C(SC)SC	13.8	11.8
Cn1c(SCC(=O)NC(C)(C)C)nnc1-c1cnccn1	0.2	6.8
COc1ccc(-n2c(-c3ccccc3)cc(C(=O)N3CCC(n4c(=O)[nH]c5ccccc54)CC3)c2C)cc1OC	-12.3	-9.0
Further results follow:
SMILES	NPYLR7 agonist	NPYLR7 agonist max-min
Cc1ccccc1-c1nc2c(C)cccn2c1NC(C)(C)CC(C)(C)C	-4.6	2.7
COc1ccccc1-c1cc(C(=O)N2CCOCC2)nc2cc(C(C)(C)C)nn12	14.9	14.6
C=CCn1c(=S)[nH]c2scc(-c3ccc(C)o3)c2c1=O	-1.2	-3.5
Cc1ccccc1C(=O)Nc1c(C)nc2scc(C)n2c1=O	6.3	2.4
Cn1nnc2c(=O)n(CC(=O)c3ccccc3)cnc21	-1.2	11.5
COc1cccc(F)c1-c1ccc(SCC(N)=O)cc1	-2.3	6.9
CC(=O)Nc1cnc(-c2cccc([N+](=O)[O-])c2)cn1	6.0	2.4
Cc1c(C(=O)NCC2CCCO2)c(C(F)(F)F)nn1C1CCCN(C)C1 (stereo unspecified)	17.8	8.0
Cc1ccc(C(C)(C)C)cc1S(=O)(=O)NCc1cccnc1	4.5	4.5
Cc1nc2ccc(-n3ccnc3-c3nccn3C)cc2[nH]1	7.2	3.9
O=C(O)c1cc2n(n1)CCCN(C(=O)CCc1c[nH]c3ccccc13)C2	-8.1	-12.2
C(=NNc1nc2ccccc2[nH]1)c1ccco1	3.5	0.7
O=C(O)C1CCCN(C(=O)c2cccc(Cl)c2Cl)C1 (stereo unspecified)	-5.8	-7.4
Cc1cc(C)cc(N2CCN(C(=O)C3CCC(=O)N(C4CCCC4)C3)CC2=O)c1 (stereo unspecified)	0.9	-0.1
COc1cccc(N2CCN(C(=O)C3CCC(=O)N(C4CC4)C3)CC2=O)c1 (stereo unspecified)	5.4	3.7
Cc1[nH]n(-c2nc(-c3ccccc3)cs2)c(=O)c1N=Nc1cccc(Cl)c1	-5.7	-8.1

Screens deposited in PubChem BioAssay by Fisher Drug Discovery Resource Center.
